Screens as filed in PubChem.
Cruzain inh Det = blocks cruzain activity in presence of Triton detergent; P25779; purified cruzain, Z-FR-AMC fluorescence, 0.01% Triton; Potency, µM, inactives show max response, negative = inhibition, hits mostly inhibitors; hit rate 0.43% among 200,000; active = well fitted curve in the direction sought with a large enough effect; inconclusive = small, poorly fitted or top-dose-only effect, or another doubt; inactive = no such curve, though single readings can be large; an effect the other way counts as inactive or inconclusive;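 also: plate controls were neutral wells for no effect and buffer without enzyme for full effect; nearly all actives have a fitted effect of over 40% in size; top concentration of the series not given in the record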
Target sequence (P25779 123-467 limits assumed): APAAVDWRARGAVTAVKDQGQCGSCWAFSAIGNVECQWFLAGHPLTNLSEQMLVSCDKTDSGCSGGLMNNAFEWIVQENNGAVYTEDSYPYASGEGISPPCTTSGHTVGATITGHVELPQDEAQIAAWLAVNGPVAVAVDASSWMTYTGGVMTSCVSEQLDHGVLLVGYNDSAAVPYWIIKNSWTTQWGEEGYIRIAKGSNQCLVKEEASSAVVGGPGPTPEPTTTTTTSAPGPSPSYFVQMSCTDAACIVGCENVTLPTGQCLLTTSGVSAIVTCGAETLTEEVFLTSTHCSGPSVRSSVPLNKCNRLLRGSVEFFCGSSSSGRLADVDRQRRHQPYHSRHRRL
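Cysteine protease activity tested under reducing, mildly acidic conditions (100 mM sodium acetate pH 5.5, 5 mM DTT) plus 0.01% Triton X-100. Cruzain 1.5 nM; substrate Z-FR-AMC 2 uM; 15 min compound preincubation at room temperature.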
NS1 function inh = influenza NS1 inhibition; S. cerevisiae slowed by influenza A NS1, growth recovery by OD600; Potency, µM (highest dose often 46.1 µM), without a hit: at the top dose activity, positive = more growth; hit rate 0.4% among 270,000; AID 2326; also: actives are rising curves; nearly all actives have a fitted effect of over 50% in size
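S. cerevisiae expressing influenza A NS1, grown in glucose, washed, then diluted 1:100 into pH 6.0 -URA galactose medium with 23 nl compound. Growth recovery read as OD600; NS1-free strain serves as control.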
RE007 growth inh = less growth of the S. pombe RE007 Vpr strain; S. pombe RE007 Vpr strain, BacTiter-Glo ATP luminescence, 24 h; control for the full effect not named in the record; Potency, µM (top dose mostly 92.2 µM), without a hit: at the highest dose activity change, negative = less growth; hit rate 0.21% among 360,000; active = well fitted falling curve with a large enough effect; inconclusive = small, poorly fitted or top-dose-only effect; inactive = no such curve, though single readings can be large or run the other way;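 also: % is scaled to controls: 0 for no effect and ±100 for the full control effect; nearly all actives have a fitted effect of over 50% in size; the assay follows cell death caused by Vpr and the record does not say whether a fall means rescue or toxicity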
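Fission yeast strain RE007, carrying one chromosomally integrated HIV-1 vpr copy, was seeded at OD 0.01 in PMG+AL medium with 23 nL pinned compound. After 24 h at 30 °C and 99% humidity, viability was read by BacTiter-Glo luminescence.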
Cruzain inh noDet = blocks cruzain activity in detergent-free assay | purified cruzain, Z-FR-AMC fluorescence, no detergent | AID 1476 | hit rate 2.3% among 200,000 | P25779 | Potency, µM, for the others: max response, negative = inhibition, usual class: inhibitors; active = well fitted curve in the direction sought with a large enough effect; inconclusive = small, poorly fitted or top-dose-only effect, or another doubt; inactive = no such curve, though single readings can be large; an effect the other way counts as inactive or inconclusive;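 also: plate controls were enzyme without inhibitor for no effect and buffer without enzyme for full effect; nearly all actives have a fitted effect of over 40% in size; top concentration of the series not given in the record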
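Purified cruzain at 1.5 nM, pre-incubated 15 min with compound at room temperature in 100 mM sodium acetate pH 5.5, 5 mM DTT, 0.00005% Triton X-100. Reaction started with 2 uM Z-FR-AMC; AMC fluorescence increase over 60 s gives rate.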
Marburg entry inh = inhibitors of Marburg virus binding or cell entry; hit rate 1.8% among 300,000; AID 540276; Potency, µM (series often up to 37.8 µM), for the others: top-dose activity change, negative = inhibition, hits mostly inhibitors; Marburg virus pseudotyped entry inhibition, cell reporter; control for the full effect not named in the record; about a third of the inactives were read at about 46 µM; active = well fitted inhibition curve with a large enough effect; inconclusive = small, poorly fitted or top-dose-only effect, or effect the other way; inactive = flat fitted curve, though single readings scatter; tested in HEK293 cells; about a fifth of its hits are not listed in these tables; also: % is scaled to controls: 0 for no effect and ±100 for the full control effect; luciferase read-out
StopGo reporter = FMDV 2A StopGo reporter, luciferase signal. human cells with a luciferase reporter of 2A StopGo recoding; control for the full effect not named in the record. Potency, µM (top dose mostly 57.9 µM), for inactives: top-dose signal change, negative = less light. hit rate 1.2% among 410,000; active = well fitted falling curve with a large enough effect; inconclusive = small, poorly fitted or top-dose-only effect; inactive = no such curve, though single readings can be large or run the other way; tested in HEK293T cells; also: % is scaled to controls: 0 for no effect and ±100 for the full control effect; nearly all actives have a fitted effect of over 45% in size; luciferase light after 4 h
LASV entry inh = Lassa virus entry inhibition; Lassa virus pseudotype entry inhibition, cell reporter; control for the full effect not named in the record; hit rate 1.2% among 300,000; Potency, µM (doses to about 37.9 µM), for the others: at the highest dose activity change, negative = inhibition, usual class: inhibitors; active means well fitted inhibition curve with a large enough effect; inconclusive means small, poorly fitted or top-dose-only effect, or effect the other way; inactive means flat fitted curve, though single readings scatter; tested in HEK293 cells; also: % is scaled to controls: 0 for no effect and ±100 for the full control effect; nearly all actives have a fitted effect of over 50% in size; luciferase read-out
SARS PLP yeast = SARS-CoV PLP inhibition in yeast; hit rate 0.19% among 330,000; Potency, µM (doses to about 32.9 µM), without a hit: at the top dose activity, positive = growth rescue; S. cerevisiae expressing SARS-CoV PLpro, growth rescue; control for the full effect not named in the record; also: 0% is about no effect; nearly all actives have a fitted effect of over 55% in size; growth read by luminescence after 48 h
* = called active by the depositor; ? = inconclusive; · = not tested or not shown; & = joins results of further samples; [ ] = remark or other dose. Unless noted, calls follow the shape of the dose curve; as a rule, active means well fitted rising curve with a large enough effect; inconclusive means small, poorly fitted or top-dose-only effect; inactive means no such curve, though single readings can be large or run the other way. Potency is read from the fitted curve at half-maximal effect.

SMILES,Cruzain inh Det,NS1 function inh,RE007 growth inh,Cruzain inh noDet,Marburg entry inh,StopGo reporter,LASV entry inh,SARS PLP yeast
Cc1ccccc1CS(=O)(=O)Cc1ccc(C(=O)NC2CCCCC2)o1,·,5%,14%,·,·,-5%,·,4%
COc1cc(SC)ccc1C(=O)N(Cc1ccccc1)c1ccccn1,·,-6%,-3%,·,15%[46.1 µM],44%[activator],0%,0%
CCCN1CCC(Oc2cccc(C(=O)NCCc3ccccc3)c2)CC1,·,?,23%,·,?,13%,15%,·
CCCCc1cc(=O)oc2c(C)c(OCC(=O)N3CCC(C(=O)O)(c4ccccc4)CC3)ccc12,·,?,10%,·,·,-17%,·,-6%
COc1cccc(C(C#N)N2N=C(C)CC2(C)C)c1O (stereo unspecified),6.2%,7%,-20%,0%,1%,·,?,3%
O=C1c2cccnc2C(=O)N1Cc1ccc(F)cc1,2.5%,-11%,-7%,-1%,5%,-11%,2%,3%
COc1c(OC)c(O)c2c(=O)c(O)c(-c3ccccc3)oc2c1OC,·,-30%,-7%,·,·,-13%,·,2%
Cc1ccc(-n2nnc(-c3nsc(NC(=O)c4ccccc4)n3)c2C)cc1,-0.5%,·,·,?,·,40%[activator],29%[46.1 µM],·
COc1cc(OC)c(NC(=O)c2ccc(Br)o2)cc1Cl,-14%,-148%,-23%,-20%,-10%,-26%,11%,-17%
CCOC(=O)c1ccc(Oc2c(C)oc3cc(OS(C)(=O)=O)ccc3c2=O)cc1,-4.3%,7%,16%,7%,?,0%,5%,-10%
CCn1c(=O)n(CC(=O)Nc2ccc(F)cc2)c(=O)c2ccccc21,·,·,10%,·,-3%[46.1 µM],-4%,1%[46.1 µM],-2%
COC(=O)c1cccnc1-n1c(=O)c2cccnc2n(CC(=O)Nc2c(C)cc(C)cc2C)c1=O,-1.6%,·,·,?,-6%[46.1 µM],-12%,-15%[46.1 µM],·
CCOC(=O)N1CCc2c(sc3nc4n(c(=O)c23)N=C(c2ccc(OC)cc2)CS4)C1,·,6%,-5%,·,1%[46.1 µM],-20%,-4%[46.1 µM],-1%
O=C1c2ccccc2C(=O)N1CCCCON1C(=O)c2ccccc2C1=O,-5.8%,6%,-7%,-13%,2%,-16%,0%,25%
Cc1c(C(=O)N(C)C)sc2c1c(=O)n(-c1ccc(Cl)cc1)c(=O)n2CC(=O)C(C)(C)C,2.4%,·,·,0%,·,-10%,22%[46.1 µM],·
Cc1nc(NC(=S)NC(=O)c2cccs2)ccc1Br,-1.8%,12%,-10%,?,?,36%[activator],15%,10%
CCN1CC(CN(C)Cc2nc(-c3ccco3)oc2C)CC1=O (stereo unspecified),·,1%,9%,·,3%[46.1 µM],12%,14%[46.1 µM],0%
O=C(/C=C/c1ccccc1)c1ccccc1,-1.5%,-35%,-26%[18.4 µM],-14%,-4%,?,0%,-3%
COC(=O)c1ccc(-c2csc(NC(=O)c3ccc(S(=O)(=O)N4CCc5ccccc5C4)cc3)n2)cc1,1.0%,12%,-6%,6.3µM*,0%,-13%,10%,22%
O=C(OCc1ccccc1)c1cnc(Cl)c(Cl)c1,·,3%,-17%,·,-2%[46.1 µM],15%,4%,0%
O=C(N=C1SC2CS(=O)(=O)CC2N1c1cccc(F)c1)C1CC1 (stereo unspecified),·,8%,-5%,·,·,-14%,·,1%
O=C(CN1C(=O)S/C(=C\c2ccc(O)cc2)C1=O)c1ccccc1,·,0%,-2%,·,-27%[46.1 µM],10%,13%,0%
COc1cccc(CN(C)C(=O)c2ccc(N3CCCC3)c([N+](=O)[O-])c2)c1,·,-36%,-8%,·,·,0%,·,-7%
CCOCCCNC(=O)/C(C#N)=C/c1ccccc1F,·,·,-6%,·,-1%,3%,8%,-6%
COC(=O)/C=C1\N/C(=N\c2nc(C)cc(C)n2)N(c2ccc(Cl)cc2)C1=O,·,0%,-17%,·,6%[14.2 µM],-48%,-3%,-1%
Cc1nnc2n1NC(c1ccc(Cl)cc1)C(C(=O)N1CCC(C)CC1)S2 (stereo unspecified),4.1%,-6%,8%,-4%,7%,-10%,14%,-1%
Cn1cc(S(=O)(=O)N2CCC(C(N)=O)CC2)c(=O)n(C)c1=O,·,1%,-1%,·,·,0%,·,5%
O=C(NCc1nc2ccccc2[nH]1)c1cccs1,6.5%,1%,-6%,-15%,·,43%[activator],·,7%
Cc1ccc(-c2noc(Cn3nc(C(=O)O)c4ccccc4c3=O)n2)cc1,·,0%,-2%,·,?,15%,10%[46.1 µM],0%
CC(=O)OCC(OC(C)=O)C(OC(C)=O)C(OC(C)=O)C(=O)Nc1ccc(C)cc1C (stereo unspecified),-0.6%,3%,-5%,5%,-7%,-23%,2%,-4%
Cc1ccc(NC(=O)C2Cc3ccccc3N2C(=O)c2ccccc2)cc1Cl (stereo unspecified),0.0%,·,·,-6%,·,-18%,11%[46.1 µM],·
CCOc1cccc2sc(N3CCN(C(=O)C4CC4)CC3)nc12,-3.2%,·,·,5%,·,-5%,2%[46.1 µM],·
CC1CCN(S(=O)(=O)c2ccc3c(c2)N(CC(=O)O)C(=O)CO3)CC1,1.1%,·,·,0%,·,?,18%[46.1 µM],·
COCC(O)CNc1ccccc1 (stereo unspecified),1.8%,-3%,-14%,1%,19%,-11%,?,?
Clc1ccc(CN2C3=NCCN3c3ccccc32)cc1,2.0%,2%,-19%,-4%,?,0%,-21%,-4%
O=C(O)Cc1sc(Nc2ccccc2)nc1-c1ccccc1,-17%,·,·,-25%,?,22%,?,·
CCOC(=O)c1[nH]c2cc(OC)c(OC)cc2c1N,-1.7%,-4%,-11%,-17%,1%,-4%,22%,3%
CCn1c(Cc2ccccc2)nnc1SCC(=O)OC(C)C,3.2%,-3%,-5%,9%,8%,7%,-6%,-3%
COc1ccc(Cl)cc1NC(=O)CN1C(=O)CC(C)S(=O)(=O)c2ccccc21 (stereo unspecified),·,·,-13%,·,3%[14.2 µM],15%,3%,-3%
CCCC(=O)NC(c1cccs1)c1cc([N+](=O)[O-])c2cccnc2c1O (stereo unspecified),2.4%,8%,0%,2%,?,0%,?,·
Cc1cc(O)ccc1Nc1nc2ccccc2nc1Nc1ccc(O)cc1C,-18%,5%,4%,10µM*,-42%,0%,-16%,-17%
CCc1ccc(NC(=S)N2CCNC(=O)C2CC(=O)OC)cc1 (stereo unspecified),·,·,2%,·,-1%[46.1 µM],0%,2%[46.1 µM],0%
COc1cccc(-c2noc(CCCC(=O)NC3CCCC3)n2)c1,·,6%,-2%,·,·,-22%,·,-11%
CCCOc1ccc(-c2c(C(=O)N/N=C/c3ccc(OC)cc3)nnn2-c2nonc2N)cc1,-8.3%,11%,-6%,?,-27%,0%,?,4%
Cc1ccc(-n2c(-c3ccco3)nc3c(cnn3-c3ccccc3Cl)c2=O)cc1,-3.5%,·,·,-1%,13%[46.1 µM],-24%,6%[46.1 µM],·
Nc1nc(CN2CCN(c3ccccc3)CC2)nc(Nc2ccc(Cl)cc2)n1,·,-4%,-5%,·,·,32µM*,·,-1%
CC(C)Nc1nc(Cl)nc(NC(C)C)n1,3.2%&0.5%,-5%,-14%,-9%&-9%,2%&2%&2%&2%&2%&2%,-3%&-19%,3%,-5%
CCc1ccc(S(=O)(=O)c2nnn3c2nc(NCc2cccs2)c2sccc23)cc1,-5.7%,·,·,-7%,·,8%,5%[46.1 µM],·
Cn1cnnc1SCC(=O)N1N=C2/C(=C/c3ccco3)CCCC2C1c1ccco1 (stereo unspecified),0.5%,3.5µM*,0%,-2%,-10%,0%,-5%,-1%
O=C(Nc1cccc(-n2cccn2)c1)C1CCCN(Cc2cc3ccccc3[nH]2)C1 (stereo unspecified),·,29%,-12%,·,?,-16%,?,-3%
Clc1ncnc2[nH]ccc12,·,·,0%,·,-7%[46.1 µM],3%,10%[46.1 µM],·
CN(Cc1ccc(Cl)cc1Cl)C(=O)c1cccc(S(=O)(=O)N2CCN(c3ccccc3)CC2)c1,·,·,3%,·,?,?,?,-7%
O=C(CCc1nc2ccccc2s1)Nc1ccccc1,-0.4%,-16%,60%,-4%,-1%,9%,0%,-26%
COc1ccc2[nH]c3c(=O)n(CCCCC(=O)N4CCC(C(N)=O)CC4)c(=S)[nH]c3c2c1,0.7%,0%,-16%,-9%,18%,-10%,3%,0%
CCC(=O)N1CCc2cc(OC)c(OC)cc2C1COc1ccc(F)cc1 (stereo unspecified),·,-4%,9%,·,·,-19%,·,0%
Cc1ccc(S(=O)(=O)N2CCN(C(=O)CCC(=O)NCCc3ccc(F)cc3)CC2)cc1,·,·,-11%,·,-1%[46.1 µM],1%,-6%,-1%
O=C(CCn1cnnn1)N1CCCC(Nc2ccc(F)c(F)c2)C1 (stereo unspecified),·,0%,35%,·,?,3%,0%,-3%
O=C(N/N=C/c1ccc2c(c1)OCO2)c1sc2cccc(Cl)c2c1Cl,-11%,9%,11%,?,-6%,17%,-4%,-10%
Fc1ccccc1-c1nc(-c2ccc(Br)o2)no1,·,1%,5%,·,·,-24%,·,-1%
CSc1ncc(Cl)c(C(=O)Nc2ccc(S(=O)(=O)N3CCOCC3)cc2)n1,-0.8%,-37%,-13%,3%,-23%&-23%,?,8%,0%
CCC(=O)c1ccc(OC(=O)Cc2ccc(OC)cc2)cc1,·,4%,-5%,·,12%[46.1 µM],-10%,?,4%
CCOC(=O)c1c(NC(=O)/C=C/c2ccc3c(c2)OCO3)sc(C)c1C,3.0%,10%,·,2%,2%,·,·,1%
